# Screens from PubChem.
# Ecoli rRNA inh: inhibitors of bacterial rRNA selective over humanized ribosomes. E. coli WT GFP vs humanized-ribosome RFP mutants, fluorescence, 24 h; active compounds read low; DMSO median 0, no signal -100. GFP signal change (wild-type ribosome), % (no concentration beside the values). actives 1.6% (n = 350,000);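 active means significant combined selectivity score with lowered wild-type GFP, culture density cut under 30%, mutant RFP and density less affected; inactive means any of these conditions unmet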; further: one replicate is shown; some compounds called inactive have numbers as strong as hits
# Vif TR-FRET: inhibitors of Vif binding to APOBEC3G peptide, primary screen, biochemical, TR-FRET, GST-Vif 1-94, biotin-A3G peptide, dose response retest (AID 1117319) | TR-FRET GST-Vif / biotin-A3G peptide binding; higher % means a stronger effect; test concentration not given here; strong numbers were not always called active | inhibition, %; hits with a dose series show IC50 in µM | actives 0.57% (n = 260,000);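 active means above the screen mean plus three standard deviations and confirmed in dose response; inconclusive means results disagree or hit not tested in dose response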;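 further: Vif residues 1-94 fused to GST binding biotinylated APOBEC3G peptide 110-148; 0% = full assay without inhibitor and 100% = GST in place of GST-Vif; retest series ran down from 100 µM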
# FGF22 binding: binders of recombinant human FGF22 by thermal shift. SYPRO orange fluorescence; percent of sucrose octasulfate shift, DMSO zero. calls only at 9.99 µM. actives 1.5% (n = 340,000). AID 651658;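 active means melting point raised past a set limit in the mean and every replicate; inconclusive means no clear call; three in four hits are not shown here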
# Target sequence (Q9HCT0 whole entry, looked up): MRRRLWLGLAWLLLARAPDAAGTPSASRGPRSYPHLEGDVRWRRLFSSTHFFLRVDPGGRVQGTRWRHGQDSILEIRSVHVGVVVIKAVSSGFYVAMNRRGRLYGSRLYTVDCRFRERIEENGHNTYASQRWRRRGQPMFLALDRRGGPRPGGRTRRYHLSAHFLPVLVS
# MLL AF4-AF9 inh: inhibitors of human MLL-AF4/AF9 interaction; inhibition, % at 10 µM; AlphaScreen, biotin-AF4 peptide binding to FLAG-AF9; actives 0.47% (n = 350,000); P42568;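 active means every replicate reaching a set inhibition limit, whatever the replicate mean, cut at about 25% in these data; inconclusive means mean inhibition reaches that limit but some replicates miss it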;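 further: 0% = plate neutral control median and 100% = total signal loss; the record names both 10 and 1 µM as test concentration; the first replicate is given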
# Target sequence (P42568 whole entry, looked up): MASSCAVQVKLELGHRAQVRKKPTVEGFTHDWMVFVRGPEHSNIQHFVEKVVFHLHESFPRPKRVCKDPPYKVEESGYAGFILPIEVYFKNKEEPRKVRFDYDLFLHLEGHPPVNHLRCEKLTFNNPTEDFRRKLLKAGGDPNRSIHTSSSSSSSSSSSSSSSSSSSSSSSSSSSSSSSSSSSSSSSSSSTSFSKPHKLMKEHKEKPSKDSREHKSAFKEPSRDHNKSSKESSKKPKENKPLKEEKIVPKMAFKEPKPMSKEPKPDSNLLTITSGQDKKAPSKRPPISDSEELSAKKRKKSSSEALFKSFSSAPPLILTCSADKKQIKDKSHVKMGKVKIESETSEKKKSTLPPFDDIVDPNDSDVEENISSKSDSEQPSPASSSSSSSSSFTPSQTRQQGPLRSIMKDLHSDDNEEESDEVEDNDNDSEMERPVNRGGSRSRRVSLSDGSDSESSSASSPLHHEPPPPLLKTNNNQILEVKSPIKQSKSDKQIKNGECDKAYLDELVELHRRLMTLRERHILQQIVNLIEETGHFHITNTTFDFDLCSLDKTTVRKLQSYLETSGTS
# ALR H2O2 inh: human ALR oxidase inhibition via reduced H2O2; P55789; purified ALR, DTT oxidation, H2O2 HRP-luminol luminescence; inhibition, % (no concentration beside the values); actives 3.8% (n = 290,000); AID 485317;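 active means mean and each replicate at 75% or more; inconclusive means only one of the two met; inactive means neither met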;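 further: stock transfer was 7.5 nL into about 7.5 µL; 0% = neutral wells and 100% = wells with inactivated enzyme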
# Target sequence (P55789 whole entry, looked up): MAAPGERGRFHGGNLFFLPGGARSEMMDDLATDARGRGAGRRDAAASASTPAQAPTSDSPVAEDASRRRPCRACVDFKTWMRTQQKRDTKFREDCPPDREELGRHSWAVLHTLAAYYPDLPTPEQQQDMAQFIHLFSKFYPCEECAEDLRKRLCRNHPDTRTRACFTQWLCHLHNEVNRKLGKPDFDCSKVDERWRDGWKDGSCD
# E coli growth: E. coli growth inhibition; actives 0.21% (n = 330,000); AID 1053175; Escherichia coli growth, OD600, 23 h; active compounds read low; OD600 absorbance (concentration not given with the values);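 active means OD600 absorbance below the run mean of sample wells minus 3.6 SD, in any replicate, cut at about 0.56 in these data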;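 further: stock transfer was 300 nL into about 60 µL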
# HNF4A DNA FP: change in binding of human HNF4 alpha to DNA. AID 1224865. HNF4a-FITC DNA binding, fluorescence polarization, 1 h. activity change, % at 10 µM. P41235. actives 0.3% (n = 360,000); in the data active means activity change above about 30%, passing the limit was not always enough;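 further: controls were the assay level and a saturating level of protein; the project sought stronger binding though the title names inhibitors; some compounds called inactive have numbers as strong as hits; positive values seem to mean higher polarization but the record does not say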
# Ecoli rRNA inh OD600: second read-out of Ecoli rRNA inh, no call of its own (marks repeat the call); OD600 change, %; measured here: OD600 growth;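 optical density of the mix in the first replicate; 0 = DMSO median and -100 = no signal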
# Ecoli rRNA inh RFP: also measured in Ecoli rRNA inh; calls as there; RFP signal change, %; measured here: RFP humanized mutant strains;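 first replicate; 0 = DMSO median and -100 = no signal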
# An asterisk follows results filed as active; i = inactive; u = inconclusive; x = not tested or not shown; & = joins results of further samples.
# The line under a structure holds: FGF22 binding, ALR H2O2 inh, Ecoli rRNA inh, Ecoli rRNA inh OD600, HNF4A DNA FP, Vif TR-FRET, E coli growth, MLL AF4-AF9 inh, Ecoli rRNA inh RFP
C[C@@H]1CN([C@H](C)CO)C(=O)Cc2cc(NC(=O)C3CCCCC3)ccc2O[C@H]1CN(C)S(=O)(=O)c1ccc(F)cc1
 : i, x, -3, -8, x, x, x, -7.9, 0.0
CC(C)(C)OC(=O)CNC(=O)c1[nH]cnc1C(=O)NCC(=O)OCc1ccccc1
 : i, x, -12, -13, 1.2, x, 0.64, -0.5, 11
Cc1ccc(N2C(=O)C3C4C=CC(CNC(=S)Nc5ccc(F)cc5)(O4)C3C2=O)cc1 (configuration not stated)
 : x, -3, x, x, 0.9, 0%, 0.69, x, x
O=C(O)c1ccc2oc(SCC(=O)N3CCCCC3)nc2c1
 : x, -2, x, x, -1.9, 1%, 0.7, x, x
COc1ccc(CCNS(=O)(=O)c2ccc(Cl)s2)cc1OC
 : x, -7, x, x, -3.9, -5%, 0.69, x, x
CCC(=O)N1CC2(C1)[C@@H](c1ccc(-c3ccc(F)cc3)cc1)[C@H](CO)N2S(C)(=O)=O
 : i, x, -1, -8, x, x, x, 2.6, 1.4
O=C1Nc2ccccc2S/C1=C/NCc1ccccc1Cl
 : i, x, x, x, 2.3, 2%, 0.69, -0.3, x
COc1cccc(-c2ccc([C@@H]3[C@@H](CO)N4CCCCN(S(=O)(=O)c5cccs5)C[C@H]34)cc2)c1
 : i, x, -37, -45, x, x, x, 4.1, 3.3
O=C(NC12CC3CC(CC(C3)C1)C2)C1CC(=O)N(c2ccc(Br)cc2)C1 (configuration not stated)
 : x, -5, x, x, 3.4, -1%, 0.74, x, x
O=C(COC(=O)Cc1ccc(S(=O)(=O)N2CCOCC2)s1)NCc1ccc(Cl)cc1
 : x, -13, x, x, 2.2, -1%, 0.64, x, x
Cc1ccc(C(=O)/C=C/Nc2cccc([N+](=O)[O-])c2)o1
 : x, x, x, x, 0.2, -1%, 0.65, x, x
O=S1(=O)N=C(N2CCCC2)c2ccccc21
 : i, -6, 8, 15, -0.3, 3%, 0.63, -1.0, 3.8
COc1ccc(Nc2nc(C)cc(C)c2C(N)=O)c(OC)c1
 : i, 71, 4, -1, 0.5, -1%, 0.73, -21, -4.4
CC1CN(C2CCCCC2)c2nc3c(c(=O)[nH]c(=O)n3C)n2C1 (configuration not stated)
 : x, 95*, x, x, -0.7, 7%, 0.73, x, x
O=C(NCC(=O)N1CCC(N2CCCCC2)CC1)C1CCCCC1
 : x, -27, x, x, -4.4, 2%, 0.73, x, x
O=C(CN1CCc2ccccc21)NC(=O)NC1CCCCC1
 : i, 13, 9, 3, 0.0, 1%, 0.68, -11, 7.0
Cc1ccc(S(=O)(=O)N(C)c2ccc(NS(C)(=O)=O)cc2)cc1
 : x, -10, x, x, -0.7, 0%, 0.75, x, x
COc1ccc(C(=O)OCC(=O)NCc2ccco2)cc1OC
 : x, 6, x, x, -3.6, 17%, 0.66, x, x
OCc1cn(-c2ccccc2)nc1-c1cccnc1
 : x, 0, x, x, -4.0, 2%, 0.68, x, x
NS(=O)(=O)c1ccc(CCNC(=O)COC(=O)/C=C/c2cc(Br)ccc2F)cc1
 : i, -1, -2, -17, -2.7, x, 0.67, -1.8, 0.5
COc1ccccc1NC(=O)Cn1nnc(C(=O)Nc2ccccc2)c1N
 : x, 0, x, x, 2.2, 5%, 0.72, x, x
O=C(CC1c2ccccc2Oc2ccccc21)Nc1ccccc1F
 : x, -2, x, x, 1.9, 5%, 0.69, x, x
Cc1cc(C(=O)COC(=O)CC2Sc3ccccc3NC2=O)c(C)n1-c1ccc(Br)cc1 (configuration not stated)
 : i, 35, x, x, 8.8, u, 0.69, 1.2, x
CC1=C(C(=O)OCc2ccccc2)C(/C=C/c2ccccc2)N2C(=O)CCSC2=N1 (configuration not stated)
 : i, 26, -1, 0, -3.0, u, 0.71, 17, 4.7
COC(=O)c1cccc([N+](=O)[O-])c1CS(=O)(=O)c1ccc(C)cc1
 : x, -10, -9, -9, -0.1, 14%, 0.71, 1.6, 1.3
CCCCC[C@H](C)N1C[C@H](COCc2ccccc2)Oc2cc(N3CCC[C@@H]3CO)ccc2S1(=O)=O
 : i, x, 6, 3, -2.4, x, x, -2.1, 5.7
CC1(C)Cc2nc3oc4c(NCCCN5CCOCC5)ncnc4c3cc2CO1
 : i, -9, 10, -1, 5.0, 5%, 0.69, 1.4, 1.3
N#Cc1c(Nc2ccccc2)c(C=O)c[nH]c1=O
 : i, -3, 7, 1, -1.8, -5%, x, 6.1, -1.6
CN(C)Cc1ccccc1Sc1cccc2ccccc12
 : i, -59, -55, -81, 1.0, x, 0.63, -3.5, -18
O=C(CCN1CCCCC1)NCC[C@@H]1CC[C@@H](NS(=O)(=O)c2cccc(F)c2)[C@H](CO)O1
 : i, x, 3, 6, x, x, x, -1.0, -0.1
CCc1nc(C#N)c(N2CCOCC2)o1
 : x, 0, x, x, 1.4, x, 0.67, x, x
C[C@H](CO)N1C[C@H](C)[C@@H](CN(C)S(=O)(=O)c2cccs2)Oc2ncc(C#CCC3CCCC3)cc2C1=O
 : i, x, 1, 3, x, x, x, -0.6, -0.4
O=C(NNC(=O)c1ccc(F)c(S(=O)(=O)N2CCOCC2)c1)c1ccc(Br)cc1
 : i, 4, 6, 3, 1.8, -4%, 0.67, -4.0, 0.9
N#C/C(=C\c1c(Cl)cccc1Cl)c1nc2ccccc2o1
 : x, 1, x, x, 1.4, 0%, 0.71, x, x
C[C@H](CO)N1C[C@H](C)[C@@H](CN(C)Cc2ccc(F)cc2)Oc2ncc(Br)cc2C1=O
 : i, x, 2, 11, -0.5, -6%, x, -0.4&-0.6, -2.5
Cc1cc(O)ccc1NC1=CC(=O)CC(C)(C)C1
 : i, 92*, 7, 5, 18, x, 0.68, -6.1, -9.7
CC(=O)N1CCOc2ccc(S(=O)(=O)N(C)c3ccc(C)cc3)cc21
 : i, -1, -21*, -11*, 1.1, x, 0.66, -1.8, -2.6*
COCCN(C(=O)CCC(=O)Nc1ccccn1)C(C(=O)NCCC(C)C)c1ccc(OC)cc1 (configuration not stated)
 : x, -6, x, x, 2.6, 26%&-9%, 0.79, x, x
OC(COc1ccc2c(c1)OCO2)CN1CCCC1 (configuration not stated)
 : i, x, 14, 10, 4.5, u, 0.71, 2.8, -1.0
COc1ccc(-n2c(Cc3cccn3C)nnc2SCC(=O)Nc2cccc(OC)c2)cc1
 : i, 17, 2, -1, 2.2, 2%, 0.72, 6.9, 1.8
C[C@@H]1CN([C@H](C)CO)C(=O)c2cc(NC(=O)CCC(F)(F)F)ccc2O[C@H]1CN(C)Cc1ccc(C(F)(F)F)cc1
 : i, x, -1, -3, x, x, x, 0.6, 0.5
Cc1cc(NC(=O)CN(C)CCOc2ccccc2)ccc1Br
 : i, x, -40, -38, 2.9, 0%, 0.66, 1.7, -5.8
CC(=C1SC(=S)NC1=O)c1ccccc1
 : i, x, -18, -29, 3.1, -9%, x, -2.6, -4.6
CCOC(=O)C1CCN(C(=O)CCNC(=O)Cn2cnc3ccccc3c2=O)CC1
 : i, 10, 2, 4, -1.1, x, 0.66, 5.2, -1.9
O=C(c1ccco1)N1CCN(C2CC(=O)N(c3ccccc3)C2=O)CC1 (configuration not stated)
 : x, 3, x, x, -2.2, u, 0.67, x, x
CC(C)(C)NC(=O)C(c1ccc(C(F)(F)F)cc1)n1c(=O)c(-c2ccccc2)nc2ccccc21 (configuration not stated)
 : i, x, -1, 0, 4.8, x, x, 9.9, -3.4
OC(C#CCN1CCCC1)c1ccccc1 (configuration not stated)
 : i, -10, 2, 3, 2.8, 2%, 0.68, -9.4, -4.2
COc1ccc(NCc2nnc(SCC(=O)c3ccc(C)cc3)o2)cc1
 : x, -4, x, x, 0.3, 7%, 0.68, x, x
C[N+]1(C)CC2=Cc3ccccc3CC2C1 (configuration not stated)
 : i, -15, 20, 19, -1.4, x, 0.66, -1.3, 0.8
CCc1nnc(NC(=O)CSc2nc3ccc(OC)cc3[nH]2)s1
 : i, -3, -9, -2, 1.9, -7%, 0.64, -2.0, 0.1
O=C(c1cccs1)N1CCCc2ccccc21
 : i, 1, -24*, -18*, 0.7, -4%, 0.73, 8.3, -3.9*
Cc1ccc(NC(=O)C(C)Sc2nc3nc(C)cc(C)n3n2)cc1 (configuration not stated)
 : i, -4, x, x, 5.4, 106%, 0.7, -1.8, x
Cc1nc(Oc2ccc(Cl)cc2)c2oc3ccccc3c2n1
 : x, -2, 7, 8, -1.2, -4%, 0.7, x, -1.5
O=C(O)CCC(=O)Nc1ccc(-c2nnc(-c3ccco3)o2)cc1
 : i, 5, -8, 0, -3.2, 2%, 0.7, -6.9, 0.8
COc1ccc(S(=O)(=O)N(Cc2ccccc2)c2ccccc2C(=O)Nc2ccccc2C(=O)NCc2ccco2)cc1
 : x, -1, x, x, 1.2, 12%, 0.78, x, x
CC(C)NC(=O)N(C)C[C@@H]1Oc2ccc(NC(=O)Nc3cccc4ccccc34)cc2C(=O)N([C@@H](C)CO)C[C@@H]1C
 : i, x, 6, 4, x, x, x, -1.7, -3.0
COc1ccccc1Cn1c(=S)[nH]c2cc(C(=O)N3CCC(C(N)=O)CC3)ccc2c1=O
 : i, 36, 6, 0, 0.0, x, x, 2.0, -0.1
COC(=O)C1CN(C(=O)C(C)Oc2ccccc2Cl)c2ccccc2O1 (configuration not stated)
 : i, x, -8, -11, 0.1, -11%, 0.68, -1.4, 1.1
C/C(=N\NC(=O)c1nc(C)cc(C)n1)c1ccccc1
 : x, 4, x, x, 3.5, -2%, x, x, x
COCCCn1cc(C(=O)c2cc(Br)ccc2O)cc(C#N)c1=O
 : i, -19, -7, -4, 12, 6%, 0.66, -0.6, -1.3

# Individual results from above:
# ALR H2O2 inh result of `Cc1ccc(NC(=O)C(C)Sc2nc3nc(C)cc(C)n3n2)cc1` (configuration not stated) : -4
# E coli growth result of `CCc1nnc(NC(=O)CSc2nc3ccc(OC)cc3[nH]2)s1` : 0.64

# Continuation:
# The line under a structure holds: FGF22 binding, ALR H2O2 inh, Ecoli rRNA inh, Ecoli rRNA inh OD600, HNF4A DNA FP, Vif TR-FRET, E coli growth, MLL AF4-AF9 inh, Ecoli rRNA inh RFP
CCOC(=O)C(NC(C)=O)C(=O)O (configuration not stated)
 : x, -2, 5, 6, 3.5, 1%, 0.73, x, -1.9
Cc1cccc(C(O)c2cnc(C)n2Cc2ccccc2)c1 (configuration not stated)
 : i, x, -2, -3, -5.6, -2%, x, 0.3, -8.5
Cc1ccc(OC(C)C(=O)Nc2ccc(S(=O)(=O)Nc3cc(C)on3)cc2)cc1 (configuration not stated)
 : x, x, x, x, -0.5, -2%, 0.67, x, x
CNC(=O)C[C@H]1CC[C@@H]2[C@H](COc3ccc(NS(=O)(=O)c4ccccc4C)cc3C(=O)N2C)O1
 : i, x, 0, 2, x, x, x, 1.0, 0.7
COc1cccc(NC(=O)N[C@H]2C=C[C@H](CC(=O)Nc3ccccc3)O[C@@H]2CO)c1
 : i, x, -6, -4, x, x, x, -1.4, -0.4
Cn1nc(OC(=O)Nc2ccc(F)cc2)cc1C(F)(F)F
 : x, -5, x, x, -2.2, 0%, 0.67, x, x
COc1ccc(N2CCN(C(=O)CCSCc3ccccc3F)CC2)cc1
 : i, x, -33*, -18*, -0.2, x, 0.71, 0.7, -1.4*

# Only part of the results is shown. The share of hits here may be higher or lower than overall.
